Mtb H37Rv = Confirmatory growth inhibition assay against Mycobacterium tuberculosis H37Rv, potency (AID 1949); most inactive calls were filed without a number and no value below 0 was filed; inhibition, % at 10 µg/mL; hits with a dose series show IC50 in µg/mL; 100,000 tested, 1.6% active;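 active means confirmed in a dose series; inconclusive means about 50% or more but not retested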;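 further: bacteria grown 7 days with compound before Alamar blue readout; 0% = untreated bacteria and 100% = reference antibiotic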
An asterisk follows results filed as active; i = inactive; ? = inconclusive. This is a subset. The share of hits here may be higher or lower than overall.

SMILES | Mtb H37Rv
O=C(CNC(=O)c1ccccc1)Oc1cc2oc(=O)c3c(c2cc1Cl)CCC3 | i
O=C(CNC(=O)C1CCCCC1)NNC(=O)c1ccccc1Br | i
COc1cc(C(=O)NC(=S)Nc2cccc(NC(=O)c3ccco3)c2)cc(OC)c1OC | i
Cc1cccc(N(Cc2ccc(F)cc2)C(=O)c2ccccc2)c1C | i
C(=C\c1nn2c(-c3ccco3)nnc2s1)/c1ccccc1 | i
COc1ccc(S(=O)(=O)Nc2cccc([N+](=O)[O-])c2)c(Cl)c1Cl | i
COc1ccc(C)cc1NC(=O)c1ccc(CN2CCC(Cc3ccccc3)CC2)cc1 | 3.4µg/mL*
O=S(=O)(Nc1ncccn1)c1ccc(NC(=S)Nc2ccc(F)c(Cl)c2)cc1 | ?
O=[N+]([O-])c1ccc(N2CCOCC2)cn1 | i
CCC1(C(=O)c2ccc(Br)cc2)C2C(C)(C)OC(=O)C21C(=O)OC (stereo not drawn) | i
O=C(CCn1cnc2ccccc2c1=O)Nc1ccc(Cl)c(Cl)c1 | 1%
CC12CCC(C(=O)NC3CCCCC3)(CC1=O)C2(C)C (stereo not drawn) | i
CCC(=O)Nc1ccc(S(=O)(=O)Nc2cccnc2)cc1 | 1%
Cc1cc(C)c(NS(=O)(=O)c2ccccc2)c(C)c1 | i
COc1ccc(CNC(=S)NC2CCCC2)cc1 | i
Cc1nnc(NC(=O)CSc2nnc(C)c(=O)[nH]2)s1 | i
O=C(Cc1ccc(Cl)cc1)Nc1ccc(C(=O)Nc2ccccc2[N+](=O)[O-])cc1 | i
COc1ccc(CCn2c3c(c(=O)[nH]c2=O)C(c2c(C)[nH]n(-c4ccccc4)c2=O)(C(F)(F)F)C(=O)N3)cc1OC (stereo not drawn) | i
Cc1ccc(NC(=O)CNc2ccc3c(c2)OCCO3)c(C)c1 | 27%
Cc1cc(Cl)ccc1NC(=O)C1CCN(S(=O)(=O)c2ccc(F)cc2)CC1 | 22%
O=S(=O)(Nc1ccccc1Sc1ccccc1)c1ccc(Cl)cc1 | i
COC(=O)Cc1c(C)c2c(O)cc(C)cc2oc1=O | i
CS(=O)(=O)N(CC(=O)N1CCC(C(N)=O)CC1)c1cc(C(F)(F)F)ccc1Cl | i
CCOc1ccc(CC(=O)NNC(=S)NCCc2ccccc2)cc1 | i
COc1ccc(OC)c(NC(=S)NC(=O)c2ccccc2I)c1 | 8%

Some of these compounds in order of SMILES length, ascending:
SMILES | Mtb H37Rv
COc1ccc(CNC(=S)NC2CCCC2)cc1 | i
COC(=O)Cc1c(C)c2c(O)cc(C)cc2oc1=O | i
Cc1cc(C)c(NS(=O)(=O)c2ccccc2)c(C)c1 | i
Cc1nnc(NC(=O)CSc2nnc(C)c(=O)[nH]2)s1 | i
CCOc1ccc(CC(=O)NNC(=S)NCCc2ccccc2)cc1 | i
CCC1(C(=O)c2ccc(Br)cc2)C2C(C)(C)OC(=O)C21C(=O)OC (stereo not drawn) | i
COc1ccc(S(=O)(=O)Nc2cccc([N+](=O)[O-])c2)c(Cl)c1Cl | i

Remaining list, next part:
SMILES | Mtb H37Rv
COc1ccc(C2CC(c3ccccc3)=NN2c2ccc(S(N)(=O)=O)cc2)cc1OC (stereo not drawn) | ?
Cc1cccc(NC(=O)C(Cc2ccccc2)NC(=O)c2ccco2)n1 (stereo not drawn) | i
Cc1[nH]c2ccccc2c1CCC(=O)NC1CCCCC1 | 2%
CCCOc1ccc(NC(=O)C(=O)NCCc2ccc(OC)c(OC)c2)cc1 | i
CCOC(=O)c1[nH]c(C)c(CCC(=O)OC)c1C | i
CC(=O)OC1CC(C)(C)N(OC(=O)c2ccc(N)cc2)C(C)(C)C1 | i
Cc1cccc2c(N=NC(=O)c3ccccc3O)c(O)[nH]c12 | 22%
COc1ccc(C2C(C#N)=C(N)OC3=C2C(=O)CC(C)(C)C3)cc1 (stereo not drawn) | 5%
CCOc1ccc(S(=O)(=O)Nc2cc(OC)ccc2OC)cc1C | 0%
C=CCn1c(SCC(C)=O)nc2sc(-c3ccccc3)cc2c1=O | i
COc1ccc(OCCCC(=O)Nc2cccc(OC)c2)cc1 | 2%
COc1ccc(-c2nc3cc(NC(=O)c4cc(OC)cc(OC)c4)ccc3o2)cc1 | i
O=C(COc1ccc2ccccc2c1)Nc1cccc(NC(=O)COc2ccc3ccccc3c2)c1 | i
Cc1ccccc1OCc1nc2ccccc2n1Cc1ccccc1F | 39%
CCN(CC)C(=O)c1sc(NC(=O)c2ccccc2F)c(C(=O)OC(C)C)c1C | i
Cc1ccc(SC(C)C(=O)Nc2ccc(S(=O)(=O)Nc3nccs3)cc2)cc1 (stereo not drawn) | 2%
Clc1ccc(OCCCN2CCCC2)c(Br)c1 | i
COc1ccc(OC(C)C(=O)Nc2cccc(Cl)c2)cc1 (stereo not drawn) | i
Cc1cc(I)cc(C)c1NC(=O)CN1C(=O)COc2ccc(Cl)cc21 | i
Cc1ccc(NC(=O)CSc2nc(C)nc3ccccc23)c(C)c1 | i
COC(=O)c1sc2cc(NC(=S)N3CCN(C/C=C/c4ccccc4)CC3)ccc2c1Cl | i
Cc1cccc(NC(=O)c2ccccc2OCC(=O)c2ccc(Cl)cc2)c1 | i
COc1cc(OC)cc(N2C(=O)CC(N3CCN(Cc4ccccc4)CC3)C2=O)c1 (stereo not drawn) | i
Cc1cc(Cl)ccc1NC(=O)CN(c1cccc(C(F)(F)F)c1)S(=O)(=O)c1ccccc1 | i
COc1ccc(C2CC(=O)n3nc(-c4ccc(Cl)cc4)nc3S2)cc1OC (stereo not drawn) | i

In the list so far, 5 have an NH in an aromatic ring:
SMILES | Mtb H37Rv
Cc1nnc(NC(=O)CSc2nnc(C)c(=O)[nH]2)s1 | i
COc1ccc(CCn2c3c(c(=O)[nH]c2=O)C(c2c(C)[nH]n(-c4ccccc4)c2=O)(C(F)(F)F)C(=O)N3)cc1OC (stereo not drawn) | i
Cc1[nH]c2ccccc2c1CCC(=O)NC1CCCCC1 | 2%
CCOC(=O)c1[nH]c(C)c(CCC(=O)OC)c1C | i
Cc1cccc2c(N=NC(=O)c3ccccc3O)c(O)[nH]c12 | 22%

(listing goes on)
SMILES | Mtb H37Rv
CC(C)CNC(=O)c1ccccc1NC(=O)c1cccs1 | 7%
O=C(Nc1nc(C23CC4CC(CC(C4)C2)C3)cs1)c1cccnc1 | i
CCOc1ccc(C(CC(=O)O)NS(=O)(=O)c2ccc(C)cc2)cc1 (stereo not drawn) | i
OCCNc1nc(Nc2ccc(Cl)cc2)nc(N2CCCC2)n1 | 33%
COC(=O)C1=C(C)NC2=C(C(=O)CC(c3ccc(Cl)cc3)C2)C1c1ccc(F)cc1 (stereo not drawn) | ?
COC(=O)CCn1nc(-c2ccc(Cl)cc2)c2ccccc2c1=O | 41%
CCOc1ccccc1N1CCN(C(=O)C(c2ccccc2)c2ccccc2)CC1 | i
COc1cccc(C(=O)Oc2ccc3c(=O)c(-c4ccc(OC)c(OC)c4)c(C)oc3c2)c1 | i
CCCNS(=O)(=O)c1ccc(OCC(=O)N(C)Cc2ccccc2)cc1 | i
Cc1ccc(CNc2oc(-c3cccs3)nc2C#N)cc1 | 0%
Cc1ccc(NS(=O)(=O)c2c(Cl)cccc2Cl)cc1C | i
CSc1ccc(Cl)c(C(=O)Nc2c(C)nn(-c3ccccc3)c2C)c1 | 1%
CCCCc1cc(=O)oc2cc(OC(C)C(=O)O)c(Cl)cc12 (stereo not drawn) | i
Clc1ccc2nc3c4ccccc4cnn3c2c1 | i
COc1cccc(OC)c1OCCOc1ccc2ccccc2c1 | i
O=C(CCN1C(=O)c2ccccc2C1=O)Oc1ccc(I)cc1 | i
O=C(COc1ccccc1Br)Nc1cc(Cl)cc(Cl)c1 | i
O=[N+]([O-])c1ccccc1S(=O)(=O)Nc1ccccc1Cl | i
Cc1ccc(C)c(Nc2nc(NCCO)c3ccccc3n2)c1 | i
COc1ccccc1N1CCN(C(=O)c2ccc(CN3CCOCC3)cc2)CC1 | i
Cc1cccc(C(=O)Nc2cccc(C(F)(F)F)c2)c1[N+](=O)[O-] | 3%
CNc1cc(N2CCCCCC2)ccc1[N+](=O)[O-] | i
CCCCC(=O)Nc1ccc(C(=O)NNC(=O)Cc2ccc(OC)cc2)cc1 | i
Cc1c(NC(=O)c2ncn[nH]2)cccc1-c1nc2ccccc2s1 | i
Cc1ccc(N2C(=O)C3C4c5ccccc5C(C(=O)O)(c5ccccc54)C3C2=O)cc1Cl (stereo not drawn) | i

Some of the entries so far, comma-delimited.
molecule,Mtb H37Rv
O=[N+]([O-])c1ccccc1S(=O)(=O)Nc1ccccc1Cl,i
Cc1ccc(C)c(Nc2nc(NCCO)c3ccccc3n2)c1,i

The listing picks up, starting four compounds before the break.
SMILES | Mtb H37Rv
CNc1cc(N2CCCCCC2)ccc1[N+](=O)[O-] | i
CCCCC(=O)Nc1ccc(C(=O)NNC(=O)Cc2ccc(OC)cc2)cc1 | i
Cc1c(NC(=O)c2ncn[nH]2)cccc1-c1nc2ccccc2s1 | i
Cc1ccc(N2C(=O)C3C4c5ccccc5C(C(=O)O)(c5ccccc54)C3C2=O)cc1Cl (stereo not drawn) | i
Cc1cc(C)c(C#N)c(S(C)(=O)=O)n1 | i
Cc1ccc(S(=O)(=O)NCC(=O)O)cc1 | i
COC(=O)C1=C(C)NC2=C(C(=O)c3ccccc32)C1c1cccc(Cl)c1Cl (stereo not drawn) | i
Cc1ccc(-n2c(=O)[nH]c(=O)c3sc(N)nc32)cc1 | 1%
CCSC1=C(C#N)C(c2cccc(Br)c2)CC(=O)N1 (stereo not drawn) | i
Cc1ccccc1NC(=O)c1ccc(C)c(S(=O)(=O)Nc2cccnc2)c1 | i
CCc1cccc(CC)c1NC(=O)COc1ccccc1[N+](=O)[O-] | i
CC(Oc1ccccc1)C(=O)Nc1ccc(S(=O)(=O)NCCc2ccccc2)cc1 (stereo not drawn) | i
COc1cccc(C(=O)Nc2cc(C(C)(C)C)ccc2C(C)=O)c1 | 7%
CC(CCc1ccccc1)NC(=O)c1ccc(C(=O)NC(C)CCc2ccccc2)cc1 (stereo not drawn) | 1%
COc1cc(NC(=S)Nc2ccc(S(N)(=O)=O)cc2)c(OC)cc1Cl | i
Cc1ccc(C)c(OCCCC(=O)Nc2nc(C)c(C)s2)c1 | 4%
O=C(CCS(=O)(=O)Cc1ccccc1)Nc1nc(-c2ccccc2)cs1 | i
COc1ccccc1NC(=O)COc1ccc2c(-c3ccccc3)cc(=O)oc2c1C | i
Cc1ccc2c(Cl)c(C(=O)Nc3nc(C)c(C)s3)sc2c1 | i
O=C(CSc1ccc(Cl)cc1)Nc1nc2c(Cl)cccc2s1 | i
Cc1ccc(-c2nnc(SCC(=O)NC3CCCCC3)o2)cc1 | i
CCc1ccc(NC(=O)CSc2nnc(-c3ccccc3C)n2C)cc1 | i
Cc1cccc(NC(=O)c2ccccc2OCc2cccc(C#N)c2)c1C | 9%
COc1cc(NC(=O)c2ccccc2)cc(OC)c1 | i
CCOc1ccccc1NC(=O)CN(c1ccccc1F)S(C)(=O)=O | i
O=c1cc(C(F)(F)C(F)(F)F)oc2ccc([N+](=O)[O-])cc12 | i
CCOC(=O)c1cnc2c(C)c(C)ccc2c1Nc1ccc(NC(C)=O)cc1 | i
O=C(N1CCCCC1)N1CCN(S(=O)(=O)c2cccc([N+](=O)[O-])c2)CC1 | 0%
Cc1nc(NCCN2CCOCC2)c2sc3nc4c(cc3c2n1)COC(C)(C)C4 | i

Following part:
SMILES | Mtb H37Rv
S=c1[nH]nc(-c2ccc(Cl)cc2)n1-c1ccccc1 | i
COc1cc(C(=O)Nc2ccc(NC(=O)c3ccco3)cc2)ccc1OCc1ccc(Cl)cc1 | i
CC(=O)Nc1nc2c(s1)C(=O)CC(C)(C)C2 | 5%
c1ccc2c(c1)COC1(CCCCC1)N2 | i
COc1ccc(-c2csc3ncn(CC(=O)O)c(=O)c23)cc1 | i
Cn1c(=O)[nH]c(=O)c2c1ncn2Cc1cccc2ccccc12 | 5%
Cc1cccc(C)c1NC(=O)c1c(NC(=O)C(C)(C)C)sc2c1CCC(C)C2 (stereo not drawn) | i
CC(=O)Nc1ccc(N2C(=O)CC(NCCc3ccc(Cl)cc3)C2=O)cc1 (stereo not drawn) | i
COc1cccc(-c2cc(C(=O)NCCc3ccc(F)cc3)c3ccccc3n2)c1 | i
COc1ccccc1NC(=O)CCSc1ccccc1 | 0%
O=C1OCCC1Sc1nnc(-c2ccco2)o1 (stereo not drawn) | i
CSc1ncc(C(=O)N2CCOCC2)cn1 | i
CCOc1ccc(C(C)NC(=O)C2CCCCC2)cc1 (stereo not drawn) | i
CCc1ccc(NC(=O)COc2ccccc2Br)cc1 | i
CCc1cc2c(=O)c(Oc3ccc(OC)cc3)coc2cc1OC | i
S=C(Nc1ccc(Br)cc1Cl)N1CCN(c2ccccn2)CC1 | i
Cc1ccc(-c2csc(NC(=O)COc3ccccc3)c2C(=O)NC2CC2)cc1 | i
CCC(=O)NC(CC)Cc1ccccc1 (stereo not drawn) | 0%
CCN(CC)C(=O)c1ccccc1Sc1ccccc1C#N | i
COC(=O)c1ccccc1NC(=O)CN(c1ccc(C)c(C)c1)S(=O)(=O)c1ccc(Cl)cc1 | i
CCCC(=O)Nc1ccc(Cl)c(NC(=O)CC23CC4CC(CC(C4)C2)C3)c1 | 2%
O=C(NCCCCc1ccccc1)c1cc(Cl)ccc1Cl | 5%
COc1cc(NC(=S)NC(=O)c2cc(C)cc(C)c2)c(OC)cc1Cl | i
O=C(O)Cc1ccc(NC(=O)Nc2cccc(C(F)(F)F)c2)cc1 | i
COc1ccc(-c2nnc(SCc3ccccc3)n2Cc2ccccc2)cc1 | 5%

The list goes on.
SMILES | Mtb H37Rv
CCCCOc1ccc(C=O)cc1OCC | i
Cc1cccc(CSCCNC(=S)Nc2ccccc2)c1 | 22%
CCn1c(CNC(=O)c2cccc(C)c2)nnc1SCC(=O)Nc1cc(OC)ccc1C | i
O=c1[nH]c(=S)[nH]c(O)c1CN1CCOCC1 | 0%
COc1ccc(C2CC(=O)Nc3cc(C)c(C)cc32)c(OC)c1OC (stereo not drawn) | 1%
CC(=O)Nc1ccc2c(c1)nc(C)n2-c1ccccc1 | i
Brc1cccc(OCCCN2CCCC2)c1 | i
CCOC(=O)c1c(NC2=NC3(CCCCC3)Cc3ccccc32)sc2c1CCCC2 | i
CCN1CCN(CCCOc2cc(C)ccc2C(C)C)CC1 | i
CCCOc1ccc(OCCOc2cccc3ccc(C)nc23)cc1 | 3%

Screens (PubChem BioAssay)
